GIRK2 act: opens human GIRK2 potassium channels | P48051 | HEK293-GIRK2 thallium flux, Thallos fluorescence | calls only for hits at 25 µM | 0.05% of 63,000 active;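 active = among the strongest 0.2% of first-round signals and kept after retests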;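 also: first round at about 10 µM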
Target sequence (P48051 whole entry, looked up): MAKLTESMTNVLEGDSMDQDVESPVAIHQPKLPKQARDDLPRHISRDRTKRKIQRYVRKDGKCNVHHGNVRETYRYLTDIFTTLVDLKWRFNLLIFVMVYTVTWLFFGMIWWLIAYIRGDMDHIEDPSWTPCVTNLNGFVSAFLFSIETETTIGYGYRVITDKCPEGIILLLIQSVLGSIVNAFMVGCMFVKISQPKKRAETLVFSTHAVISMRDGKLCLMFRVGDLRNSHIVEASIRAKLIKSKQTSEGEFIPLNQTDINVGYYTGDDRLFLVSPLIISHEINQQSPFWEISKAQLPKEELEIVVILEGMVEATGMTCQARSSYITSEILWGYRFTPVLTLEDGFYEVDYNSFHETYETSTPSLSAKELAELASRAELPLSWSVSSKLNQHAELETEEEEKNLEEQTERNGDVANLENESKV
Calls only; i = inactive. Not all compounds are listed; the hit share may differ from the screen's.

SMILES | GIRK2 act
COCCn1cnc2c(-c3ccccc3)cn(CC(=O)NCc3ccco3)c2c1=O | i
CCN(CCCNC(=O)CCCn1c(=S)[nH]c2cc3c(cc2c1=O)OCO3)c1cccc(C)c1 | i
Cc1cc(C)n(CC(=O)Nc2cc(F)ccc2F)c(=O)c1-c1nc(-c2cccc(Cl)c2)no1 | i
COc1ccccc1Oc1coc2cc(OCC(N)=O)ccc2c1=O | i
CCOc1ccc(CC(=O)Nc2c3c(nn2CC(=O)NCC2CCCO2)CSC3)cc1 (stereo not given) | i
Cc1ccc([N+](=O)[O-])cc1Nc1nccc(-c2cccnc2)n1 | i
CCN(CC)S(=O)(=O)c1ccc2nc(N3CCN(c4ccccc4)CC3)cnc2c1 | i
O=C(NC1CCCCCC1)c1sccc1S(=O)(=O)N1CCN(c2ccccc2)CC1 | i
COc1ccc(-c2csc3c(=O)n(CC(=O)Nc4ccc(OC)cc4OC)cnc23)cc1 | i
COc1ccc(S(=O)(=O)NCc2ccc(C(=O)c3cccs3)s2)c(C)c1 | i
C=CCn1c(=O)c2c(nc3n(-c4ccccc4OC)c(-c4ccccc4)cn23)n(C)c1=O | i
COc1ccc(-c2nc3c4cnn(-c5cc(C)ccc5C)c4ncn3n2)cc1 | i
CCOCCn1c(=O)c2c(nc3n(C4CCCCC4)c(C)c(C)n23)n(C)c1=O | i
COC(=O)c1ccccc1NC(=O)Cn1nc2c(SC3CCCCC3)nccn2c1=O | i
COc1ccc(C2(CNC(=O)c3ccc(NC(C)=O)cc3)CCOCC2)cc1 | i
COc1ccc(Br)c(C(=O)Nc2ccc(N3CCCC3=O)c(C)c2)c1 | i
O=C(Nc1ccc2c(c1)OCCO2)c1cccc(NS(=O)(=O)c2cccc(F)c2)c1 | i
O=C(/C=C/c1ccccc1)N1CCN(CC(O)c2ccco2)CC1 (stereo not given) | i
Cc1ccc(S(=O)(=O)N2CCN(Cc3nc4ccccc4n3Cc3ccccc3)CC2)s1 | i
COc1ccc(CNC(=O)N2CCCC(c3nnc(-c4ccc5c(c4)OCO5)o3)C2)cc1 (stereo not given) | i

The last 4 compounds of the section above come first, to join the parts:
SMILES | GIRK2 act
O=C(Nc1ccc2c(c1)OCCO2)c1cccc(NS(=O)(=O)c2cccc(F)c2)c1 | i
O=C(/C=C/c1ccccc1)N1CCN(CC(O)c2ccco2)CC1 (stereo not given) | i
Cc1ccc(S(=O)(=O)N2CCN(Cc3nc4ccccc4n3Cc3ccccc3)CC2)s1 | i
COc1ccc(CNC(=O)N2CCCC(c3nnc(-c4ccc5c(c4)OCO5)o3)C2)cc1 (stereo not given) | i
O=C(CCc1nc2sc3c(c2c(=O)[nH]1)CCCCC3)N1CCN(Cc2ccc3c(c2)OCO3)CC1 | i
Nc1ncnc2c1ncn2[C@@H]1O[C@H](CO)[C@@H](O)[C@@H]1O | i
Cc1ccc(C)c(NC(=O)CSc2nccnc2N2CCN(c3ccccc3)CC2)c1 | i
COc1cccc(-c2noc(-c3cc(N4CCC5(CC4)OCCO5)nc4ccccc34)n2)c1OC | i
COc1cccc(S(=O)(=O)Nc2cccc(C(=O)N3CCCCCC3)c2)c1 | i
Cc1ccc(NC(=O)Nc2cc(N3CCN(C)CC3)ncn2)cc1F | i
CC(C)(C)c1ccc(C(=O)N2CCC(CSCc3ccco3)CC2)cc1 | i
CC(=O)c1ccc(S(=O)(=O)N2CCC3(CC2)OCCS3)cc1 | i
CN(C)S(=O)(=O)NCCn1nc(C(F)(F)F)n(C)c1=O | i
CCc1cc(C(=O)OC)c(NC(=O)CC2SC(=NC)N(C)C2=O)s1 (stereo not given) | i
Cc1cc2ncn(S(=O)(=O)N3CCCC3)c2cc1C | i
O=C1NC(=O)c2c(NC(=O)C3CCN(S(=O)(=O)c4ccc(Cl)cc4)CC3)cccc21 | i
O=C(NCc1ccc(F)cc1Cl)C1CCCN(c2nc3c(-c4ccccc4)csc3c(=O)[nH]2)C1 (stereo not given) | i
CC(C)(C)C(=O)NCC#CCOc1ccccc1C(N)=O | i
O=C(Nc1cccc(N2CCCS2(=O)=O)c1)c1ncc(-c2ccccc2)o1 | i
O=C(Nc1ccc2c(c1)N(C(=O)C1CCCC1)CC2)c1cc2ccccc2oc1=O | i
O=C(NCc1ccco1)C1COCC(=O)N1Cc1cccs1 (stereo not given) | i
CCn1c(SCC(=O)N2CCCCC2C)nc2c3cc(OC)ccc3n(C)c2c1=O (stereo not given) | i
O=C(c1ccco1)N1CCC2(CC1)OCCS2 | i
CCOc1ccc(C(=O)NCCNc2cc(-n3cccc3)ncn2)cc1 | i
O=C(c1nccnc1-c1nc2ccccc2s1)N1CCc2ccccc2C1 | i
O=C(NCCC(O)c1ccccc1)C12CC3CC(CC(C3)C1)C2 (stereo not given) | i
NC(=O)N1c2ccccc2CC(=O)c2ccccc21 | i
CC1CC(C)CN(S(=O)(=O)c2cc3c4c(c2)CCC(=O)N4CCC3)C1 (stereo not given) | i
CSc1cccc2sc(N(Cc3ccco3)C(=O)c3ccc(C#N)cc3)nc12 | i
O=C1COc2ccccc2CN1CCCn1cccn1 | i
CCC(C)NC(=O)c1c(N)n(/N=C\c2ccc(OC)c(OC)c2)c2nc3ccccc3nc12 (stereo not given) | i
CCCCCCCCCCCCCCCCC/C=C\C(=O)O | i
O=C(C1CCN(c2nccn3nc(-c4ccccc4)cc23)CC1)N1CCN(c2ccccc2)CC1 | i
O=C(CCn1ccc(=O)[nH]c1=O)NCCn1cnc(-c2ccccc2)cc1=O | i
COc1cccc(NC(=O)c2nnn(Cc3nc(-c4cccc(C)c4)oc3C)c2N)c1 | i
COCCCn1c(-c2ccccc2F)nc2nc3ccccc3nc21 | i
O=C(CCCn1cccc1)NCc1nc(-c2ccccc2)no1 | i
CCN1CCc2c(sc(NC(=O)c3cc4ccccc4o3)c2-c2nc3ccccc3s2)C1 | i
Cc1nccn1CC1CCN(C(=O)/C=C/c2ccco2)CC1 | i
CCSc1nnc(NC(=O)c2cn(C)nc2C)s1 | i
CS(=O)(=O)N1CCC(C(=O)N2CCN(CC(O)C3CC3)CC2)CC1 (stereo not given) | i
COC(=O)C1c2c(oc3cc(CO)cc(O)c3c2=O)C=CC1O (stereo not given) | i
O=C(c1ccc(OCc2nc(-c3ccco3)cs2)cc1)N1CCc2ccccc21 | i
COc1ccc(CNS(=O)(=O)c2ccc3c(c2)S(=O)(=O)N=CN3)cc1 | i
COc1ccccc1S(=O)(=O)NC(C)Cc1ccco1 (stereo not given) | i
O=C(CCn1ccc(=O)[nH]c1=O)N1CC(Oc2nc3c(Cl)cccc3s2)C1 | i
CCN(CC)CCn1c(C)cn2c3c(=O)n(Cc4ccccc4)c(=O)n(C)c3nc12 | i
O=C(CSC1CCCCC1)N1CCCCCC1 | i
O=C(CCS(=O)(=O)Cc1ccccc1)Nc1nc2c(Br)cccc2s1 | i
Cc1noc(C)c1Cn1ccn2nc(-c3ccc(F)cc3)c(CO)c2c1=O | i
Cc1ccccc1NC(=O)NCc1sc(-c2ccco2)nc1C | i
COC(=O)c1[nH]c(C)c(C(O)=C2C(=O)C(=O)N(CCN(C)C)C2c2ccccc2)c1C (stereo not given) | i
O=C(Nc1nc(CN2CCc3ccccc3C2)cs1)c1cc(=O)c2ccccc2o1 | i
CN(CC(=O)N1CCC(Oc2ccc(C#N)cn2)CC1)S(C)(=O)=O | i

Continued.
SMILES | GIRK2 act
Cc1noc(C)c1CCC(=O)N1CCC(Oc2ccc(C#N)cn2)CC1 | i
Cn1cc(CC(=O)N2CCN(S(=O)(=O)C3CC3)CC2)c2ccccc21 | i
O=C(CSc1ncnc2c(-c3ccccc3)c[nH]c12)NCCC1=CCCCC1 | i
COc1ccc2cc(-c3c(-c4ccncc4)nc(-c4ccc(S(C)=O)cc4C)n3C)ccc2c1 (stereo not given) | i
Cc1ccc(-c2ccc(=O)n(Cc3nc(-c4ccc(OC(C)C)cc4)no3)n2)cc1 | i
COc1ccc(S(=O)(=O)N2CCCc3cc(NC(=O)c4cc(C)cc(C)c4)ccc32)cc1 | i
COc1ccc(N2C(=O)CCC2=O)c(OC)c1 | i
Cc1ccc(NS(=O)(=O)c2ccc([N+](=O)[O-])cc2)c(-c2nc3ccccc3[nH]c2=O)c1 | i
CCCCOc1ccc(C(=O)N2CCC(c3nn(C)c(=O)n3-c3ccccc3)CC2)cc1 | i
CCOc1ccc(N2CCN(CC(=O)N3CCN(c4cc(C)ccc4C)CC3)C2=O)cc1 | i
COc1ccc(CCNC(=O)c2coc(NC(=O)C3CC3)n2)cc1OC | i
O=C(Cn1nc2c(c1NC(=O)CC1CCCCC1)CSC2)NCc1ccco1 | i
Cc1ccc2c(Nc3ccc(Cl)cc3)c(C(=O)N3CCSCC3)cnc2n1 | i
CCC1(CC)NC(=O)N(CC(=O)Nc2ccc3c(c2)OCCO3)C1=O | i
Cc1ccc(N2CCN(CC(=O)N3CCN(c4ccccc4O)CC3)C2=O)cc1 | i
CC(=O)SCC(=O)N=c1sc2cc(Br)ccc2n1C | i
COc1cccc(CSc2nc(CC(=O)NCc3ccccc3Cl)cc(=O)[nH]2)c1 | i
CSc1ccc(CN2CC(c3nc(-c4cccnc4)no3)C2)cc1 | i
O=C(NCc1ccccn1)C1CCN(c2ncccc2-c2nc(-c3ccccc3)no2)CC1 | i
COC(=O)c1c(NCCc2cccs2)c2cc(Cl)ccc2[nH]c1=O | i
COc1cccc(OC)c1C(=O)Nc1ccc(S(=O)(=O)Nc2cc(C)on2)cc1 | i
Cc1ccc(-c2noc(Cn3c(=O)n(Cc4ccco4)c(=O)c4ccccc43)n2)cc1C | i
COc1ccc(CCNC(=O)Cn2ccn3nc(-c4ccccc4)cc3c2=O)cc1OC | i
COCCN1CCC(CNC(=O)c2cc(OC)cc(OC)c2)CC1 | i
O=C(/C=C/c1ccco1)N1CCOC2(CCOCC2)C1 | i
Cc1nn(-c2ccccc2)c2c1C1c3ccccc3OCC1CO2 (stereo not given) | i
O=C(Cn1nc(-c2ccc(F)cc2)c2sc(N3CCCC3)nc2c1=O)NCc1ccccc1Cl | i
CCOc1ccc(NC(=O)Cn2c(C)nc(CC)cc2=O)cc1 | i
Cn1nnn(-c2ccc(NC(=O)c3ccc4c(c3)OCO4)cc2)c1=O | i
COc1cccc(C(=O)Nc2cc(N3CCN(c4ccccc4)CC3)ncn2)c1OC | i

Part of the list above in order of length of the SMILES, lowest first.
SMILES | GIRK2 act
COCCN1CCC(CNC(=O)c2cc(OC)cc(OC)c2)CC1 | i
Cn1nnn(-c2ccc(NC(=O)c3ccc4c(c3)OCO4)cc2)c1=O | i
COc1cccc(C(=O)Nc2cc(N3CCN(c4ccccc4)CC3)ncn2)c1OC | i
COc1cccc(OC)c1C(=O)Nc1ccc(S(=O)(=O)Nc2cc(C)on2)cc1 | i

Going on with the list:
SMILES | GIRK2 act
Cc1cc(C(=O)Nc2cccc3c2C(=O)N(C)C3=O)on1 | i
Cn1nc(-c2ccc(F)cc2)cc1C(=O)Nc1cccc(N2CCCCC2=O)c1 | i
N#Cc1ccc(-c2nc(C3CC(=O)N(Cc4cccs4)C3)no2)cc1 (stereo not given) | i
CCn1c(=O)c([N+](=O)[O-])c(NCC(O)c2ccccc2)c2ccccc21 (stereo not given) | i
O=C(CCCCCN1C(=O)c2cccc3cccc(c23)C1=O)NO | i
COc1ccc(NC(=O)CN2N=NC3C(=O)N(c4ccc(OC)c(Cl)c4)C(=O)C32)c(OC)c1 (stereo not given) | i
COc1ccc(NC(=O)COc2cc(C)nc(N3CCc4ccccc4C3)n2)cc1Cl | i
O=C(Nc1nc(-c2cc3ccccc3o2)cs1)c1c(F)cccc1F | i
O=C(C1CCCCC1)N(CCN1CCOCC1)c1nc2ccc(Cl)cc2s1 | i
COC(=O)c1ccccc1NC(=O)CSc1nc2c(-c3ccccc3)c[nH]c2c(=O)n1C(C)C | i
COc1ccc(-c2cc3c(=O)n(CC(=O)Nc4ccc(C(C)=O)cc4)ccn3n2)cc1 | i
CCOc1ccccc1NC(=O)CSc1nccn1-c1cccc(C(=O)Nc2ccccc2)c1 | i
Cc1ccc(-c2cc(C(=O)N3CCC(NC(=O)c4ccccc4F)CC3)[nH]n2)c(C)c1 | i
O=C(CCS(=O)(=O)c1ccccc1)NCC1CCN(C(=O)c2ccoc2)CC1 | i
CCn1c(SCC(=O)Nc2ccc(C)cc2C)nc2c(-c3ccccc3)c[nH]c2c1=O | i
COCCCNC(=O)/C(C#N)=C1\N=C(NC(=O)c2ccc([N+](=O)[O-])cc2)c2ccccc21 | i
CC1(C)CC(Nc2ncnc3[nH]ncc23)CC(C)(C)N1 | i
COc1cccc(Oc2c(C(F)(F)F)oc3c4c(ccc3c2=O)OCN(Cc2cccnc2)C4)c1 | i
O=C(CN1CCN(c2cccc(Cl)c2)C1=O)NCc1cccnc1 | i
COC(=O)c1ccc2nc(NC(=O)CCCS(=O)(=O)Cc3ccccc3)sc2c1 | i
O=C(NCc1cc(-c2ccncc2)n(C2CCCC2)n1)c1c(F)cccc1Cl | i
O=C(Nc1cccs1)NC1CCCC(OC(=O)Nc2ccccc2)C1 (stereo not given) | i
C#CCn1c(COc2ccccc2OC)nc2ccccc21 | i
CN(C)c1ncc(NC(=O)c2ccc(Br)o2)cn1 | i
Cn1cc(C(=O)OC2CN(c3nc4c(C(F)(F)F)cccc4s3)C2)nn1 | i
O=C(Nc1nc2c(s1)CN(C(=O)c1csc(-c3ccccc3)n1)CC2)C1CCC1 | i
Cc1c(C(=O)Nc2nccs2)nnn1-c1nccs1 | i
CCCCCCCCCCCCCCCCOCC(CO)SC(C)=O (stereo not given) | i
CCOc1ccc(N(C)S(=O)(=O)c2ccsc2C(=O)NCc2cc(F)cc(F)c2)cc1 | i

Random excerpt: 2 compounds from above.
SMILES | GIRK2 act
O=C(NCc1cc(-c2ccncc2)n(C2CCCC2)n1)c1c(F)cccc1Cl | i
Cc1c(C(=O)Nc2nccs2)nnn1-c1nccs1 | i

From PubChem BioAssay
